Source: PubChem BioAssay
Choline anaer gr: growth inhibitors of anaerobic choline-fed gram-negatives, minimal medium, absorbance | Gram-negative bacterium anaerobic choline minimal medium; active compounds read low; many inactives read as strong as hits in the columns shown | calls only | 55,000 compounds, 0.2% hits | AID 1963822, 2024;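 active means growth z-score on choline under -2 at 7 or 20 h with little or no fall on glycerol, limits in tiers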;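 further: stock transfer was 300 nL into about 50 µL; the organism is E. coli; final concentration not given here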
Choline anaer gr early: also measured in Choline anaer gr; calls as there; z-score; measured here: choline growth z-score, timepoint 1;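 score of optical density at 7 h as mean of two plates; lower means less growth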
Active calls of the source: *. A portion of the library. The share of hits here may be higher or lower than overall.

For CC(=O)N1CCCSc2ccc(S(=O)(=O)N(CC(C)C)CC(C)C)cc21 the results were Choline anaer gr inactive and Choline anaer gr early 0.07.
For O=C(c1ccc(CN2C(=O)CCn3nc(-c4cccc(Cl)c4)cc32)cc1)N1CCCC1 the results were Choline anaer gr inactive and Choline anaer gr early 1.3.
Screening CCOc1ccc(-n2ccc(=O)c(C(=O)Nc3cccnc3)n2)cc1 returned Choline anaer gr inactive and Choline anaer gr early -0.69.
Screening CCCNC(=O)c1cnc(N2CCNCC2)c(NS(=O)(=O)c2c(C)cc(C)cc2C)c1 returned Choline anaer gr inactive and Choline anaer gr early -1.9.
Screening Cc1ccc(C)c(OCc2nc(C)c(C(=O)Nc3ccc4c(c3)OCO4)s2)c1 returned Choline anaer gr inactive and Choline anaer gr early 0.04.
For COc1cccc(NC(=O)c2cnn(-c3ccccc3)c2)c1 the results were Choline anaer gr inactive and Choline anaer gr early -0.06.
CCN1c2cc(C)ccc2-n2cccc2C12CCN(C(=O)c1ccc3c(c1)OCO3)CC2 was read as Choline anaer gr inactive and Choline anaer gr early 0.75.
Screening Cc1cc(OCC(O)Cn2c(C3CC(=O)N(C(C)(C)C)C3)nc3ccccc32)cc(C)c1Cl (configuration not stated) returned Choline anaer gr inactive and Choline anaer gr early -1.2.
`Cn1c(=O)n(C)c2cc(Sc3ccc(Cl)cc3)c(NS(=O)(=O)c3cc(F)ccc3F)cc21` gave Choline anaer gr inactive and Choline anaer gr early 0.3.
Screening CCCn1c(=O)c2ccc(C(=O)NC(C)C)cc2n2c(=O)n(CC(=O)c3ccc(C)cc3C)nc12 returned Choline anaer gr inactive and Choline anaer gr early 0.55.
Screening Cn1c(=O)c(-c2noc(C(=O)NCCN3CCCC3)n2)nn(-c2ccccc2)c1=O returned Choline anaer gr inactive and Choline anaer gr early -0.46.
`COC(=O)c1ccccc1NC(=O)Cn1c(=O)nc(-c2ccccc2)c2ccccc21` gave Choline anaer gr inactive and Choline anaer gr early -0.72.
Screening Cc1ccc(Cl)cc1N1CCN(CCCNC(=O)c2c(-c3ccccn3)noc2C)CC1 returned Choline anaer gr inactive and Choline anaer gr early -0.19.
`CC(C)Cc1cc(-c2nn3c(-c4ccc(Cl)cc4)nnc3s2)n[nH]1` gave Choline anaer gr inactive and Choline anaer gr early 0.
For CC(=O)Nc1ccc(N2C(=O)c3cc(C)nn3CC2(C)C(=O)NCc2ccc(Cl)cc2)cc1 (configuration not stated) the results were Choline anaer gr inactive and Choline anaer gr early -1.6.
Screening Cc1cc2nc(CSc3nnc(-c4ccc(Cl)cc4)o3)cc(=O)n2o1 returned Choline anaer gr inactive and Choline anaer gr early -1.2.
Cc1nn(-c2ccc3nnc(C)n3n2)c2c1C(c1ccc(OCc3ccccc3)cc1)CC(=O)N2 (configuration not stated) was read as Choline anaer gr inactive and Choline anaer gr early 2.
For COc1cc(=O)n(-c2ccc(F)cc2)nc1C(=O)Nc1ccc(Br)cc1 the results were Choline anaer gr inactive and Choline anaer gr early -0.91.
For CN(CC(=O)NCc1ccccc1Cl)S(=O)(=O)c1ccc2c(c1)CCCC(=O)N2 the results were Choline anaer gr inactive and Choline anaer gr early -0.65.
CCCOc1ccc(CN2CCCC2c2cc(C(C)C)on2)cc1OC (configuration not stated) was read as Choline anaer gr inactive and Choline anaer gr early 0.72.
CN1CCN(c2cc(-c3ccccc3)ncn2)CC1 was read as Choline anaer gr inactive and Choline anaer gr early -0.16.
Cc1ccc(S(=O)(=O)N2CCC(n3cnc4cccnc43)CC2)cc1 was read as Choline anaer gr inactive and Choline anaer gr early 0.21.
For Cc1ccc(CNS(=O)(=O)c2cc(-c3nc(C(C)(C)C)cs3)cs2)cc1 the results were Choline anaer gr inactive and Choline anaer gr early -0.72.
Screening CCCN(Cc1ccc(C(C)C)cc1)Cc1cc(=O)n2cc(C)sc2n1 returned Choline anaer gr inactive and Choline anaer gr early -1.8.

An excerpt from above in order of SMILES length, lowest first:
CCCOc1ccc(CN2CCCC2c2cc(C(C)C)on2)cc1OC (configuration not stated) was read as Choline anaer gr inactive and Choline anaer gr early 0.72.
Screening Cc1cc2nc(CSc3nnc(-c4ccc(Cl)cc4)o3)cc(=O)n2o1 returned Choline anaer gr inactive and Choline anaer gr early -1.2.
For COc1cc(=O)n(-c2ccc(F)cc2)nc1C(=O)Nc1ccc(Br)cc1 the results were Choline anaer gr inactive and Choline anaer gr early -0.91.
For Cc1ccc(CNS(=O)(=O)c2cc(-c3nc(C(C)(C)C)cs3)cs2)cc1 the results were Choline anaer gr inactive and Choline anaer gr early -0.72.
For CN(CC(=O)NCc1ccccc1Cl)S(=O)(=O)c1ccc2c(c1)CCCC(=O)N2 the results were Choline anaer gr inactive and Choline anaer gr early -0.65.

New compounds follow.
`O=C(c1cnc2cc(-c3ccccc3)nn2c1)c1cc(F)ccc1O` gave Choline anaer gr inactive and Choline anaer gr early -0.82.
`Cc1ccc(-c2nccc(N3CCC(C(=O)NC4CCCC4)CC3)n2)cc1` gave Choline anaer gr inactive and Choline anaer gr early 1.2.
CCC(Sc1nc2ncccc2o1)C(=O)N1CCOc2ccc(C)cc21 (configuration not stated) was read as Choline anaer gr inactive and Choline anaer gr early -0.06.
Cc1oc(C2CCN(C(=O)Cc3ccsc3)CC2)nc1C(=O)N1CCCC1 was read as Choline anaer gr inactive and Choline anaer gr early -0.31.
For CCC(=O)O[C@H](CC(=O)O)C[N+](C)(C)C the results were Choline anaer gr inactive and Choline anaer gr early 0.53.
For COc1cc2c(=O)n(Cc3ccc(C(=O)NC(C)C)cc3)c(=O)n(CC(=O)NC3CCCC3)c2cc1OC the results were Choline anaer gr inactive and Choline anaer gr early 0.05.
Screening Cc1nn(-c2ccccc2)c2sc(C(=O)Oc3ccccc3Cl)cc12 returned Choline anaer gr inactive and Choline anaer gr early 0.25.
Screening COc1cc(C2CC(=O)Nc3c2sc(C(=O)O)c3-c2cccc(F)c2)ccc1OCC(N)=O (configuration not stated) returned Choline anaer gr inactive and Choline anaer gr early -0.91.
Screening CCOc1ccccc1NC(=O)CSc1nc2c(c(=O)[nH]1)CN(Cc1ccccc1)CC2 returned Choline anaer gr inactive and Choline anaer gr early 0.1.
Screening Cc1ccc(O)c(NC(=O)c2noc3c2CCCCC3)c1 returned Choline anaer gr inactive and Choline anaer gr early 0.33.
Cc1cccc(-c2nccc(Oc3ccc(C(=O)Nc4ccc(F)cc4)cc3)n2)c1 was read as Choline anaer gr inactive and Choline anaer gr early 0.46.
Screening COc1ccc(Cl)cc1NC(=O)Cn1nc2c3sc(N(C)C)nc3ncn2c1=O returned Choline anaer gr inactive and Choline anaer gr early -1.9.
CCOC(=O)c1c(S(=O)(=O)NCC(=O)Nc2ccccc2)c(C)n(CC)c1C was read as Choline anaer gr inactive and Choline anaer gr early 0.64.
`CCOC(=O)C(=O)Nc1onc(-c2ccccc2)c1C(=O)OCC` gave Choline anaer gr inactive and Choline anaer gr early 0.66.
c1ccc(-c2noc(-c3cccnc3NC3CCCCC3)n2)cc1 was read as Choline anaer gr inactive and Choline anaer gr early -2.2.
`CCN(Cc1ccc(F)cc1)Cc1cc(=O)n2nc(C(C)(C)C)sc2n1` gave Choline anaer gr inactive and Choline anaer gr early -0.52.
`c1ccc2c(c1)nc1n2CN(CCCN2CCOCC2)CN1CC1CCCO1` (configuration not stated) gave Choline anaer gr inactive and Choline anaer gr early -0.36.
Screening Cc1[nH]c(C)c(S(=O)(=O)NCc2ccco2)c1-c1nc(C2CC2)no1 returned Choline anaer gr inactive and Choline anaer gr early 0.38.
`Cc1sc(-c2cc(C(F)(F)F)[nH]n2)cc1S(=O)(=O)NC1CCCCC1` gave Choline anaer gr inactive and Choline anaer gr early 0.28.
`Cn1c(SCc2cc(=O)n3[nH]c(-c4ccccc4)nc3n2)nnc1-c1ccccc1` gave Choline anaer gr inactive and Choline anaer gr early -2.3.
Screening NC(=O)CN1C(=O)CSc2ccc(C(=O)N3CCCC3)cc21 returned Choline anaer gr inactive and Choline anaer gr early -0.14.
For O=C(NCc1c(-c2ccc(F)cc2)nc2n1CCS2)c1ccc(Br)cc1 the results were Choline anaer gr inactive and Choline anaer gr early 2.2.
Cc1nc(CC(=O)NCCc2nc3ccccc3[nH]2)cs1 was read as Choline anaer gr inactive and Choline anaer gr early -0.85.
CCOC(=O)c1nc2cc(C)c(C)cc2nc1NC1CCCC1 was read as Choline anaer gr inactive and Choline anaer gr early -0.4.
`CN(C)C(=O)CN1CCN(c2cc(C(=O)O)c3cc(NC(=O)C4CCCC4)ccc3n2)CC1` gave Choline anaer gr inactive and Choline anaer gr early -0.21.
NC(=O)c1ccccc1NC(=O)C1Nc2ccccc2S(=O)(=O)N1 (configuration not stated) was read as Choline anaer gr inactive and Choline anaer gr early -2.
Screening Cc1ccc(NS(=O)(=O)c2cc(-c3nc(C(C)C)cs3)cs2)c(C)c1 returned Choline anaer gr inactive and Choline anaer gr early 1.8.
Screening C=Cc1ccc(COC(=O)c2nnn(-c3ccc(Cl)cc3)c2C)cc1 returned Choline anaer gr inactive and Choline anaer gr early 0.63.
CCc1noc(-c2ccc(OCC(=O)Nc3nnc(C(C)C)s3)cc2)n1 was read as Choline anaer gr inactive and Choline anaer gr early -0.3.
For Cc1cc(OCc2nc(C)c(C(=O)NC3CC3)s2)ccc1Cl the results were Choline anaer gr inactive and Choline anaer gr early 0.21.
`O=C(COc1cccc(-c2nc(-c3ccccc3)no2)c1)Nc1nccs1` gave Choline anaer gr inactive and Choline anaer gr early -0.28.
For CC(C)(C)NC1=NCCNC12CCN(S(=O)(=O)c1ccc(Cl)s1)CC2 the results were Choline anaer gr inactive and Choline anaer gr early -0.1.
For Cc1ccc(NC(=O)CN2CCN(Cc3ccc4c(c3)OCO4)CC2)cc1 the results were Choline anaer gr inactive and Choline anaer gr early -0.47.
Screening COc1ccc(N(Cc2nc3nc(C)cc(=O)n3[nH]2)S(=O)(=O)c2ccc(Cl)cc2)cc1 returned Choline anaer gr inactive and Choline anaer gr early -0.27.
Screening CCOc1ccc(NC(=O)c2oc3cc(C)ccc3c2C)c2cccnc12 returned Choline anaer gr inactive and Choline anaer gr early 1.3.
`O=C(COc1ccc(F)cc1)NC1CC(=O)N(c2ccc3c(c2)OCCO3)C1` (configuration not stated) gave Choline anaer gr inactive and Choline anaer gr early -0.05.
COc1ccc(CN(Cc2cc(=O)n3nc(C(C)(C)C)sc3n2)CC(C)C)cc1OC was read as Choline anaer gr inactive and Choline anaer gr early -0.07.
For CN(CC1(C)CCOCC1)S(=O)(=O)c1ccccc1C(F)(F)F the results were Choline anaer gr inactive and Choline anaer gr early -0.17.
For O=C1Cc2cc(S(=O)(=O)N3CCc4ccccc4C3)cc3c2N1CCC3 the results were Choline anaer gr inactive and Choline anaer gr early 0.54.
`COc1ccc(CNC(=O)c2ccc(-c3ccc(S(=O)(=O)N4CCCC4)cc3)cc2)c(OC)c1` gave Choline anaer gr inactive and Choline anaer gr early 1.
Cc1cc2c(cc1S(=O)(=O)CCC(=O)Nc1cccc(F)c1)OCC(=O)N2 was read as Choline anaer gr inactive and Choline anaer gr early -0.11.
Cc1c(Cl)cccc1S(=O)(=O)Nc1cc2c(cc1N1CCOCC1)n(C)c(=O)n2C was read as Choline anaer gr inactive and Choline anaer gr early 0.18.
Cc1ccc(SCc2cn3ccsc3n2)cc1 was read as Choline anaer gr inactive and Choline anaer gr early -2.3.
Screening O=S(=O)(Nc1ccc(-c2cn3ccccc3n2)cc1)c1ccc(Br)cc1 returned Choline anaer gr inactive and Choline anaer gr early -0.37.
`CCN1c2cc(C)ccc2-n2cccc2C12CCN(S(=O)(=O)c1c(C)cc(C)cc1C)CC2` gave Choline anaer gr inactive and Choline anaer gr early -0.9.
For CCn1c(CCc2ccccc2NS(=O)(=O)c2ccc3c(c2)OCCO3)nc2ccccc21 the results were Choline anaer gr inactive and Choline anaer gr early 1.1.
Screening CCOC(=O)C1CCCN(C(=O)c2cc(N(C)S(=O)(=O)c3ccccc3)ccn2)C1 (configuration not stated) returned Choline anaer gr inactive and Choline anaer gr early 0.56.
Screening O=C(O)C1CSC(c2ccc(Cl)cc2)N1 (configuration not stated) returned Choline anaer gr inactive and Choline anaer gr early 1.6.

Of the compounds above, these contain a CF3 group:
`Cc1sc(-c2cc(C(F)(F)F)[nH]n2)cc1S(=O)(=O)NC1CCCCC1` gave Choline anaer gr inactive and Choline anaer gr early 0.28.
For CN(CC1(C)CCOCC1)S(=O)(=O)c1ccccc1C(F)(F)F the results were Choline anaer gr inactive and Choline anaer gr early -0.17.

(list continues)
CCCNC(=O)Nc1cccc(-c2noc(-c3cncc(Br)c3)n2)c1 was read as Choline anaer gr inactive and Choline anaer gr early -0.01.
`CCn1nc(C)c(CCN(C)C(=O)Nc2ccc(F)cc2)c1C` gave Choline anaer gr inactive and Choline anaer gr early 0.18.
`Cc1noc2c1C(c1ccccc1)C1=C(CC(c3ccc(O)cc3)CC1=O)N2` (configuration not stated) gave Choline anaer gr inactive and Choline anaer gr early -0.17.
CCOc1ccc(Nc2nc(C)cc(=O)[nH]2)cc1 was read as Choline anaer gr inactive and Choline anaer gr early -0.63.
Screening CCCn1c(C)ccc(-c2noc(CCCC(=O)N3CCOCC3)n2)c1=O returned Choline anaer gr inactive and Choline anaer gr early -0.77.
`Cc1ccc(NC(=O)N2CC=C(c3c[nH]c4ccccc34)CC2)cc1Cl` gave Choline anaer gr inactive and Choline anaer gr early -1.1.
Screening COc1ccc(-c2nc(Cn3c(SCc4cc(C)ccc4C)nc4ccncc43)c(C)o2)cc1OC returned Choline anaer gr inactive and Choline anaer gr early -0.52.
Screening O=C(CCc1ccccc1)NCCc1nc(-c2ccc(Cl)cc2)n[nH]1 returned Choline anaer gr inactive and Choline anaer gr early -0.41.
For CCc1ccc(C2C(c3ccccc3)=C(O)C(=O)N2c2ccc(Cl)cc2)cc1 (configuration not stated) the results were Choline anaer gr inactive and Choline anaer gr early 0.44.
`Cn1c(=O)n(C)c2cc(CNC3CC3)ccc21` gave Choline anaer gr inactive and Choline anaer gr early -0.37.
Screening O=C(Cn1c(SCc2ccc(F)cc2)nc2cccnc21)NCCc1ccccc1 returned Choline anaer gr inactive and Choline anaer gr early 0.87.
